CtBP-E1A blk: blocks the CtBP interaction with E1A | AlphaScreen GST-E1A/His-CtBP binding, 1536-well; stronger effect = lower value; control for the full effect not named in the record | 0.49% of 340,000 active | activity change, % (test concentration not listed) | AID 651724; in the data active means activity change below about -65%; inconclusive means about -30% to -65%; inactive means above about -30%; note: % is set by controls: 0 for no effect and ±100 for the full control effect; compound concentration not given in the record
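Protein mix (5X: 125 nM each GST-E1A, His-CtBP) was incubated with pinned compound 2 h at 37 deg C in dark, in 50 mM Tris pH 8.0 buffer with 300 mM NaCl. Glutathione donor and nickel acceptor beads followed; AlphaScreen signal read after 1 h.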
gsp agonist: activates gsp, the McCune-Albright syndrome mutation | gsp mutant cells, cAMP HTRF, 30 min; control for the full effect not named in the record | Potency, µM (top dose mostly 76.9 µM), without a hit: top-dose activation (cAMP increase), hits mostly activators | 0.13% of 340,000 active; active = well fitted activation curve with a large enough effect; inconclusive = small, poorly fitted or top-dose-only effect, or another doubt; inactive = no such curve, though single readings can be large or run the other way; cell line not stated here;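 note: phosphodiesterase inhibitor Ro 20-1724 added with compounds to block cAMP breakdown; potency is the fitted concentration of half-maximal effect; nearly all actives have a fitted effect of over 60% in size; about a fifth of the inactives were tested at one dose only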
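Cells in DMEM/10% FBS with G418 were pretreated with compounds in DMSO plus […] (300 uM stock) for 30 min at 37C. cAMP was measured by HTRF (cAMP-d2 plus anti-cAMP antibody-K) after 30 min at room temperature.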
Sfp inh: blocks B. subtilis Sfp PPTase activity; Potency, µM, inactives show max response, negative = inhibition, usual class: inhibitors; AID 1490; Q9F4F7; Biochemical Sfp PPTase activity, qHTS; 3.5% of 310,000 active; active = well fitted inhibition curve with a large enough effect; inconclusive = small, poorly fitted or top-dose-only effect, or another doubt; inactive = no such curve, though single readings can be large or run the other way;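 note: the enzyme is Sfp with the accession as filed and its product quenches rhodamine fluorescence; potency is the fitted concentration of half-maximal effect; 0% = enzyme reaction without inhibitor and -100% = no enzyme wells; top concentration of the series not given in the record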
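Sfp 15 nM + cpd, 15 min RT; start w/ rhodamine-CoA 5 uM, BHQ-2-YbbR 12.5 uM (final); 50 mM Hepes pH 7.6, 10 mM MgCl2, 0.01% NP-40, 0.01% BSA; read 525/598 nm at 0 and 30 min.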
gsp antag: antagonizes gsp, the McCune-Albright syndrome mutation; Potency, µM (series often up to 76.9 µM), for the others: at the top dose activity change, negative = inhibition, hits mostly inhibitors; gsp-mutant cells, cAMP HTRF, 30 min; control for the full effect not named in the record; AID 624288; 0.4% of 340,000 active; active = falling curve of any shape with a large fitted effect; inconclusive = falling curve, mostly with a smaller effect; inactive = flat or rising curve; cell line not stated here;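 note: intracellular cAMP measured with PDE inhibitor Ro 20-1724 present during compound exposure; potency is the fitted concentration of half-maximal effect; % is set by controls: 0 for no effect and ±100 for the full control effect; nearly all actives have a fitted effect of over 65% in size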
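Cells, 2000/well, grown 16–24 h in DMEM 10% FBS with 0.5 mg/ml G418, then compounds plus […] (300 uM addition stock), 30 min at 37C. cAMP read by HTRF (cAMP-d2 and anti-cAMP antibody-K in lysis buffer) after 30 min RT.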
Menin-MLL FL inh: inhibitors of human menin-MLL interaction, wild-type MLL peptide. Fluorescence polarization, fluorescein-MLL peptide displacement from menin. 290,000 tested, under 10 active. FP activity change, % at 61.4 µM; inconclusive = falling polarisation curve, or a change in total fluorescence; inactive = total fluorescence flat and polarisation flat or rising; no compound was filed as active; the % refers to the polarisation; negative = inhibition;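 note: % of control where 0% means no effect; inhibitors lower the polarisation; unlabelled MLL peptide was the positive control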
TRPV1 PAM: enhances activation of the human vanilloid receptor TRPV1; Q8NER1; TRPV1-expressing cells, Fluo-8 calcium influx, capsaicin EC20 potentiation; host cell line not named in the record; control for the full effect not named in the record; potentiation, % at 8.33 µM; 0.02% of 320,000 active; active means potentiation above 80%; inconclusive means 30% to 80%; inactive means below 30%; note: 0% is about no effect
Target sequence (Q8NER1 whole entry, looked up): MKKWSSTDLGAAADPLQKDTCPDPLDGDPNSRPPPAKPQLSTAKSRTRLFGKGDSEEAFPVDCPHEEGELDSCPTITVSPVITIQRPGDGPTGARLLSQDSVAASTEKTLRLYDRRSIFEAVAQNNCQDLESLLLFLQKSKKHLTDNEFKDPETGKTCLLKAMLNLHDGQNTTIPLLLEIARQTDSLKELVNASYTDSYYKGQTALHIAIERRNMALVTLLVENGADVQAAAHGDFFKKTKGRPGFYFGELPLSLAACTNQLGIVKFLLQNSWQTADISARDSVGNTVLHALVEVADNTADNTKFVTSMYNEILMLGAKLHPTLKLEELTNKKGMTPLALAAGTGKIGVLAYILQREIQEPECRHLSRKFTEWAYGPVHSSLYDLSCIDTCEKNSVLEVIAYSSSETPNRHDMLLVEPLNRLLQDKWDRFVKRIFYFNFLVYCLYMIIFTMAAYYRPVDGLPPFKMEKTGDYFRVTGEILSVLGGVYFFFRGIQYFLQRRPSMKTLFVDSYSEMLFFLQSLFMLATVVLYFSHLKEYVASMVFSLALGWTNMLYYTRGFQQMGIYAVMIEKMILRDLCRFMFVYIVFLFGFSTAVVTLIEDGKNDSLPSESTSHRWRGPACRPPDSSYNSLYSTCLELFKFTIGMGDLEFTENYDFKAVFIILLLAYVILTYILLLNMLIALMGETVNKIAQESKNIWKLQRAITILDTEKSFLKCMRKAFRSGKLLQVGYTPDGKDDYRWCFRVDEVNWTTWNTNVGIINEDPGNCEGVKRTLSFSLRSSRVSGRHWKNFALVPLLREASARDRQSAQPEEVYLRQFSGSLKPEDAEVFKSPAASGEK
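Fluo-8 calcium influx in TRPV1-expressing cells, kinetic read (ex 480/em 520 nm). Compound added and read 3 min for agonist activity, followed by capsaicin at EC20 final and 2 min further read for enhancement.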
ClpP mod: qHTS Assay for Activators of ClpP | purified B. subtilis ClpP, FRET peptide cleavage, 20 min | Potency, µM (titrated, usually from 57.5 µM), for the others: top-dose activity change, negative = active | 1.9% of 340,000 active; active = well fitted falling curve with a large enough effect; inconclusive = small, poorly fitted or top-dose-only effect; inactive = no such curve, though single readings can be large or run the other way; note: potency is the fitted concentration of half-maximal effect; the source files actives as falling curves though it sought activators and does not explain the sign; nearly all actives have a fitted effect of over 65% in size; many hits overshoot -100%
Target sequence (P80244 whole entry, looked up): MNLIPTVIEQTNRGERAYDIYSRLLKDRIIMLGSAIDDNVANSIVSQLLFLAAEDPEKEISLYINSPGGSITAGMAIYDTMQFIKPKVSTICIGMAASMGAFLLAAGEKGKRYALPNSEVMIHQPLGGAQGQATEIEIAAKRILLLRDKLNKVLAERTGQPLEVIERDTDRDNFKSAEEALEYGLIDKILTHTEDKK
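FRET quenching reversal measured ClpP activation: 10 microg/mL B. subtilis ClpP at pH 8 with the FRET-FV decapeptide, read at 430 nm after 320 nm excitation. The 20-min minus 0-min signal was scaled between DMSO/no-enzyme wells and ADEP (5.8 microM final).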
Starred values were filed as active, the others as inactive; ? = inconclusive; . = not tested or not shown; [ ] = dose if it differs, or a comment. Rows are unselected; any-hit rate near 5.3%.

SMILES	CtBP-E1A blk	gsp agonist	Sfp inh	gsp antag	Menin-MLL FL inh	TRPV1 PAM	ClpP mod
CCOCCCNC(=O)c1c[nH]c2cc(C)ccc2c1=O	-3	20%	-12%	-1%	0.8	-5	-0.5%
COc1cccc(NC(=O)COC(=O)c2ccccc2C(=O)N2CCN(c3ccccc3)CC2)c1	-4	5%[15.4 µM]	10%	-9%	-18	0	-2.7%
Cc1cc(N2CCN(Cc3ccc4c(c3)OCO4)CC2)n2ncnc2n1	7	9%	-2%	-9%	1.0	3	-0.6%
COc1ccc(-c2ccc(C(c3c(C)[nH][nH]c3=O)c3c(C)[nH][nH]c3=O)o2)c([N+](=O)[O-])c1	-5	5%	20µM*	-4%	-4.3	2	.
Cc1cc(C)c2nc(NCCCNC(=S)NCCCN(C)C)c(C#N)cc2c1	-3	17%	-17%	13%	1.5	-5	?
CC(C)C[C@H](N)c1nnc(S(=O)(=O)Cc2ccc(F)cc2)o1	2	4%	14µM*	-5%	0.4	27	-2.7%
Cc1cc(C)nc(NC=C2C(=O)OC(C)(C)OC2=O)n1	.	-1%	-5%	4%	3.3	?	-0.6%
O=C1CC(C(=O)Nc2ccccc2)N=C(N2CCOCC2)N1 (stereo not drawn)	8	-13%	20%	9%	3.1	-14	0.0%
Cc1cn([C@H]2C[C@H](O)[C@@H](CCC(=O)NCCc3cnc[nH]3)O2)c(=O)[nH]c1=O	-7	.	.	2%	.	.	-2.0%
Cc1ccc2c(c1)c1c(n2CC(O)CN2C(=O)CNC2=O)C(=O)CCC1 (stereo not drawn)	4	?	?	-4%	-5.4	-10	5.2%
CN1CCN(c2ccccc2NC(=O)c2ccc(-c3ccccc3[N+](=O)[O-])o2)CC1	-30	-3%	-15%	3%	-2.5	-4	-1.6%
Cc1ccc(SCC(=O)Nc2ccc(S(N)(=O)=O)cc2)cc1	-6	12%[15.4 µM]	-4%	.	-1.0	-13	.
CCc1ccc(OC(C)C(=O)Nc2ccc(S(=O)(=O)Nc3nccs3)cc2)cc1 (stereo not drawn)	2	-50%[inhibitor]	15%	-11%	2.0	-3	0.5%
CCCn1nnnc1SCC(=O)NNC(=O)c1ccco1	.	-5%	9%	1%	-0.3	21	2.0%
COCc1ccc(C(=O)N2CCC(CCC(=O)Nc3cccc(C)c3)CC2)s1	5	7%	9%	-9%	.	2	-0.4%
O=C(O)[C@@H](O)c1ccccc1	5	.	13%	4%	1.0	-4	-0.8%
COc1ccc(NC(=O)CN2CCN(CC#N)CC2)cc1	9	5%[15.4 µM]	9%	0%	-0.7	-5	-0.2%
CC(C)C[C@@]12C(=O)N(c3cccc(Cl)c3)C(=O)N1[C@H](c1ccc(Br)cc1)[C@@H]1C(=O)N(C(C)(C)C)C(=O)[C@@H]12	5	.	.	-12%	.	4	-0.7%
O=C(COc1ccc(Cl)cc1)NC1CCSC1=O (stereo not drawn)	-1	-4%	14%	-8%	4.4	-16	-2.1%
COCCNC(=O)CS(=O)Cc1nc(-c2ccc(OC)cc2)oc1C (stereo not drawn)	1	0%	9%	5%	2.3	23	3.8%
CCc1nnc(NC(=O)c2oc3ccccc3c2COC(C)C)s1	9	5%[15.4 µM]	.	-2%	.	.	0.7%
COCCCN(C(=O)C1=COCCO1)c1c(N)n(Cc2ccccc2)c(=O)[nH]c1=O	-27	-1%	.	.	.	.	-3.9%
Cc1ccc2[nH]c3c(c2c1)CCCC3=O	0	-26%	-8%	-3%	0.8	?	?
CCc1ccc(NC(=O)c2cccc(C(=O)Nc3ccc(CC)cc3)n2)cc1	-4	17%	-1%	-1%	-1.7	-7	?
Cc1c(C(=O)Nc2c(C)n(C)n(-c3ccccc3)c2=O)oc2ccccc12	12	11%	14%	4%	-3.0	-15	-0.3%
C/[N+]([O-])=C\c1ccc([N+](=O)[O-])o1	-27	28µM*	10%	3%	-7.7	4	-2.2%
CSc1ccc(/C=C(/NC(=O)c2ccccc2)C(=O)N2CCN(C)CC2)cc1	10	-16%	18%	12%	-3.3	-3	-0.1%
C[C@H](NC(=O)C1CC(=O)N(c2ccc3c(c2)OCO3)C1)C(=O)NC1CCCC1 (stereo partly drawn)	7	0%	17%	9%	1.0	1	-1.5%
Cc1ccc2c(c1)-c1c(cnn1CC(=O)O)CO2	10	5%	10%	-6%[15.4 µM]	5.0	15	-2.4%
CCn1cc(C(=O)O)c(=O)c2cc(F)c(N3CCN(C(=S)NC(=O)c4ccccc4)CC3)cc21	9	-2%[15.4 µM]	19%	9%	-2.0	-8	.

Profiles, looked up by structure. Order of values: CtBP-E1A blk, gsp agonist, Sfp inh, gsp antag, Menin-MLL FL inh, TRPV1 PAM, ClpP mod
COc1ccc(-c2ccc(C(c3c(C)[nH][nH]c3=O)c3c(C)[nH][nH]c3=O)o2)c([N+](=O)[O-])c1 is listed with -5, 5%, 20µM*, -4%, -4.3, 2, .
COc1cccc(NC(=O)COC(=O)c2ccccc2C(=O)N2CCN(c3ccccc3)CC2)c1 is listed with -4, 5%[15.4 µM], 10%, -9%, -18, 0, -2.7%
O=C1CC(C(=O)Nc2ccccc2)N=C(N2CCOCC2)N1 (stereo not drawn) is listed with 8, -13%, 20%, 9%, 3.1, -14, 0.0%

Additional compounds follow:
SMILES	CtBP-E1A blk	gsp agonist	Sfp inh	gsp antag	Menin-MLL FL inh	TRPV1 PAM	ClpP mod
CC(=O)Oc1cccc(-c2nc3ccccc3c(=O)o2)c1	-20	2%	12%	-13%	-1.9	8	-3.7%
O=C(NC1CCNCC1)C1CC1	.	-57%[inhibitor]	-4%	9%	3.2	7	-1.5%
OCCSc1nc(-c2cccnc2)nc2ccccc12	-27	13%	15%	-2%	2.3	-7	-1.9%
Cc1ccc(S(=O)(=O)NNC2=NCCCCC2)cc1	2	-13%[15.4 µM]	15%	3%	2.6	0	.
CN(C)S(=O)(=O)c1ccc(C(=O)OCC(=O)N2CC3(C)CC2CC(C)(C)C3)cc1 (stereo not drawn)	14	7%	.	-10%	.	.	2.1%
Cc1nc(CN2CCN(C(=O)c3ccc(Br)cc3)CC2)cs1	0	4%	8%	4%	1.8	1	-3.3%
Cc1ccccc1NC(=O)NCc1ccc2c(c1)OCO2	-5	-4%	2%	13%	3.5	-5	-2.1%
NC(=O)[C@@H]1CCCNc2c(I)cc([N+](=O)[O-])cc2C(=O)N[C@@H](CO)C(=O)NCC(=O)N1	-19	7%	30%	8%	0.2	3	-3.6%
O=C(COC(=O)/C=C/c1ccc(F)cc1)Nc1ccc(Cl)cn1	-3	16%[15.4 µM]	7%	-10%	-2.2	14	-7.0%
COc1ccc(CCN(C)C(=O)COc2cccc(-n3cnnn3)c2)cc1OC	4	-4%	.	0%	.	.	.
O=S(=O)(NCc1cn2ccsc2n1)c1ccc(Oc2ccccc2)cc1	-1	1%	-2%	-29%	0.6	.	1.2%
CCC(CC)C(=O)c1c[nH]c(C(=O)N2CCN(c3ccccc3F)CC2)c1	19	-41%[15.4 µM]	9%	18%	-3.0	-17	.
CCOc1cccc2sc(=NC(=O)c3ccc(S(=O)(=O)N4CCOCC4)cc3)n(C)c12	17	-28%	4%	-2%	2.6	6	?
O=C(c1cccs1)N1CCCC(c2nc3c(nnn3Cc3ccccc3Cl)c(=O)[nH]2)C1 (stereo not drawn)	-13	-32%[inhibitor]	-7%	-3%	2.0	1	.
Cc1ccc(C(=O)c2c(NC(=O)c3cccnc3)sc3c2CCCC3)cc1	-26	2%	?	-7%	3.8	-19	-2.7%
CCCn1c(=N)c(C(=O)NCC2CCCO2)cc2c(=O)n3cccc(C)c3nc21 (stereo not drawn)	-25	?	7%	-3%	0.4	-10	50%
Cc1ccc2nc(C)/c(=N\O)c(C)nc2c1	-6	-72%[inhibitor]	-2%	-3%	0.8	-16	-8.2%
C/C=C1\C(OC2OC(CO)C(O)C(O)C2O)OC=C(C(=O)OC)C1CC(=O)OCC1C(C)C(OC(=O)CC2C(C(=O)OC)=COC(OC3OC(CO)C(O)C(O)C3O)/C2=C\C)CC1C(CO)CO (stereo not drawn)	2	.	0%	7%	-6.5	30	-12%
Cc1cccc(-n2ncc3c(NCc4ccccn4)ncnc32)c1	-6	7%	-3%	1%	2.2	-12	?
Cc1ccccc1C(=O)N1N=C(c2cccc(NS(C)(=O)=O)c2)CC1c1cccs1 (stereo not drawn)	.	1%	-6%	-16%	2.4	?	-5.6%
COc1ccc(NC(=S)Nc2ccc(C)c(S(=O)(=O)N3CCCCC3)c2)cc1	.	.	-4%	.	2.4	5	.
CCOC(=O)C(=O)NC1CC=CCC1c1ccc2c(c1)OCO2 (stereo not drawn)	9	17%	.	17%	.	.	0.7%
COCCCNC(=O)/C(C#N)=C/c1c(N2CCN(c3ccc(OC)cc3)CC2)nc2c(C)cccn2c1=O	-15	13%[15.4 µM]	-13%	?	-29	7	0.0%
CC1CCCN(C(=O)C2CCN(S(=O)(=O)c3ccc4c(c3)CC(C)N4C(=O)C3CC3)CC2)C1 (stereo not drawn)	.	-25%	18%	-1%	3.7	-4	-0.5%
O=C(OCc1cc([N+](=O)[O-])cc2c1OCOC2)c1ccccn1	.	?	16%	5%	-0.7	3	0.9%
COc1nc(Nc2ccc(C(C)C)cc2)nc(OC)n1	11	3%	-14%	-2%	-0.2	3	0.1%
CCCCCN(C(=O)CCC(=O)OCC(=O)N1CCC(C)CC1)c1c(N)n(CCCC)c(=O)[nH]c1=O	2	-1%	.	9%	.	7	1.8%
CCn1c(COc2cccc(OC)c2)nnc1SCC(=O)Nc1ccccc1C(=O)OC	-6	-20%	-1%	-21%	-1.3	13	-1.4%
COc1ccc(CNc2ncc(-c3ccc(F)cc3)n2C)cc1OC	.	-1%	?	4%	-4.0	1	-4.5%
O=C(COc1ccc2c(-c3ccccc3)cc(=O)oc2c1)N[C@H](Cc1c[nH]c2ccccc12)C(=O)O	-13	.	0%	9%	-0.7	13	-2.0%
COc1ccc(C2C(C(=O)c3ccco3)=C(O)C(=O)N2CC2CCCO2)cc1OC (stereo not drawn)	-2	32%	-1%	4%	.	2	.
N/C(=N\OC(=O)c1cc(Br)ccc1Cl)c1ccccn1	3	-1%	-5%	-12%	0.0	-4	.

Assay outcomes deposited in PubChem by National Center for Advancing Translational Sciences (NCATS).
